BJeLR viability – BJeLR cell viability reduction; BJeLR fibroblasts viability, CellTiterGlo ATP luminescence, 48 h; HRASV12, hTERT and SV40 LT/ST transformed; viability loss activity score, % (concentration not given with the values); 30,000 tested, 0.64% active; AID 2275; in the data active = viability loss activity score above about 50%; about a fifth of its hits are not listed in these tables;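 note: higher score means fewer live cells and less ATP luminescence; stock transfer was 50 or 100 nL into about 30 µL; 0% = vehicle wells and 100% = a reference killing control; one replicate is shown; the record names a cut of 85%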
A1 inhib – blocks A1 activity | MEF A1-2A-BIM cells, caspase-Glo luminescence, 3 h; percent of clofoctol signal, DMSO as zero | 21,000 tested, 0.51% active | caspase activation, % (concentration not given with the values);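 active = most replicate scores above 10, or exactly half above 10 with mean activity above 10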;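 note: effector caspase 3 and 7 activity cleaving a DEVD luciferin substrate; 50 nL library stock added to about 30 µL; numbers are from one replicate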
* hit, by the source's call; . = no result given. These rows are one share of the data, so the mix of outcomes need not match the whole.

Molecule	BJeLR viability	A1 inhib
C[C@@H]1CN([C@@H](C)CO)C(=O)c2cccc(NC(=O)Nc3ccc(C(F)(F)F)cc3)c2O[C@@H]1CN(C)S(=O)(=O)c1ccc(F)cc1	-0.8	.
Ic1cccc(CSc2nnc(-c3ccncc3)o2)c1	1.6	-0.6
C[C@@H]1CN([C@@H](C)CO)C(=O)c2cc(NC(=O)Nc3ccc4c(c3)OCO4)ccc2O[C@H]1CN(C)Cc1ccc(-c2ccccc2)cc1	5.5	-0.3
COc1ccc(C(=O)Nn2c(C)nnc2-n2nc(C)cc2C)cc1OC	0.3	-1.1
CCOC(=O)CSc1nc(C)c2cc(C)c(C)cc2n1	0.1	-0.2
Cc1cc(Sc2ccc(Cl)cc2)nc(-c2ccccn2)n1	-0.8	-0.8
C[C@@H]1CN([C@@H](C)CO)C(=O)c2cccc(NS(=O)(=O)c3ccccc3)c2O[C@H]1CN(C)Cc1ccccc1	-5.8	.
Cc1ccc(NC(=O)c2cccc(N(C)C)c2)cc1NC(=O)c1ccc(O)cc1	2.5	-1.3
NC(N)=NCCNS(=O)(=O)c1cccc2cnccc12	-4.2	-0.4
CC1CC(=O)c2c(ccc3c2C(=O)c2c(O[C@@H]4O[C@@H](C)[C@H](O)[C@@H](O)[C@H]4O)cccc2C3=O)C1 (stereo partly specified)	5.3	0.6
COc1ccc(NC(=O)Nc2cccc3c2O[C@@H](CN(C)Cc2ccccc2)[C@H](C)CN([C@@H](C)CO)C3=O)cc1	3.2	.
CNC(=O)NC(=O)CSc1nnc(Cc2ccccc2)n1-c1ccc(Cl)cc1	3.2	-0.9

Molecule	BJeLR viability	A1 inhib
CNC[C@@H]1Oc2ccc(NC(=O)CCN3CCOCC3)cc2C(=O)N([C@@H](C)CO)C[C@H]1C	-4.6	0.0
C[C@@H]1CN([C@@H](C)CO)C(=O)c2cc(NS(=O)(=O)c3cn(C)cn3)ccc2O[C@@H]1CN(C)Cc1ccc(C(=O)Nc2ccccc2N)cc1	0.9	.
Cc1cc(-c2ccccc2)nc2oc3c(c12)NC(=O)CN(c1ccccc1)C3=O	-3.7	-0.5
CCC(C(=O)Nc1ccc(OC)c(OC)c1)n1c(C)c2cnn(-c3ccccc3)c(=O)c2c1C (stereo unspecified)	-1.5	0.5
Cc1ccc(C(C)C)c(OCC(=O)/C=C2\Sc3ccccc3N2C)c1	2.3	-0.6
C[C@H]1CN([C@@H](C)CO)C(=O)c2cc(NC(=O)Cc3cn(C)c4ccccc34)ccc2O[C@@H]1CN(C)C(=O)Nc1ccc(F)cc1	-3.3	-0.1
C=C(C)C(=O)O[C@H]1[C@H]2C(=C)C(=O)O[C@@H]2C[C@@H](C)[C@@H]2O[C@@H]2C(=O)[C@](C)(O)[C@@H]1OC(=O)C(=C)C	80*	0.0
Cc1c(C(=O)N2CCC(C)CC2)sc2nc(-c3ccc(F)cc3)cn12	5.7	.
O=C1CCCc2c1n(CCN(Cc1ccccc1)Cc1ccccc1)c1ccc(Cl)cc21	4.8	-0.6
COc1cc(/C=C/C(=O)OC2C(COC(=O)c3cc(OC)c(OC)c(OC)c3)OC(OC3(CO)OC(CO)C(O)C3O)C(O)C2O)cc(OC)c1OC (stereo unspecified)	2.6	-0.3
Cc1noc(C)c1S(=O)(=O)Nc1ccc2c(c1)C(=O)N([C@H](C)CO)C[C@H](C)[C@H](CN(C)S(=O)(=O)c1cccs1)O2	2.3	-0.3
C[C@H]1CN([C@@H](C)CO)C(=O)c2cc(NC(=O)Nc3ccc4c(c3)OCO4)ccc2O[C@H]1CN(C)Cc1ccc(Cl)c(Cl)c1	4.8	0.2

Molecule	BJeLR viability	A1 inhib
COc1ccc(-c2nc(SC)c(S(=O)(=O)c3ccc(C)cc3)[nH]2)cc1	8.8	0.0
c1ccc2c(c1)NC(c1ccncc1)n1c-2nc2ccccc21 (stereo unspecified)	2.2	0.8
CCOC(=O)/C(C#N)=C1/NC(=O)Nc2ccccc21	1.3	-0.8
Cc1cc(C(=O)Nc2cccc3c2O[C@H](CN(C)C(=O)NC(C)C)[C@H](C)CN([C@@H](C)CO)C3=O)n(C)n1	-4.5	.
Cc1noc(C)c1S(=O)(=O)Nc1ccc2c(c1)C(=O)N([C@H](C)CO)C[C@H](C)[C@H](CN(C)Cc1ccc(-c3ccccc3)cc1)O2	-3.0	-0.7
C[C@@H]1CN([C@H](C)CO)C(=O)c2cc(NC(=O)Nc3ccc(C(F)(F)F)cc3)ccc2O[C@H]1CN(C)S(=O)(=O)c1cccs1	0.5	0.8
Cc1cccc(NC(=O)c2cccc(Br)c2)n1	0.9	-6.8
CC(C)NC(=O)N(C)C[C@H]1Oc2c(NC(=O)C3CCOCC3)cccc2C(=O)N([C@@H](C)CO)C[C@@H]1C	2.5	.
COc1ccc(NC(=O)N(C)C[C@@H]2Oc3c(NC(=O)NC(C)C)cccc3C(=O)N([C@@H](C)CO)C[C@@H]2C)cc1	2.6	.
CC1/C(=N/O)C[C@@H]2C[C@H]1C2(C)C (stereo partly specified)	-1.5	0.5
CCOC(=O)N1CCC(Nc2nc3ccccc3nc2NS(=O)(=O)c2ccc(Cl)cc2)CC1	4.4	-0.4
C[C@H]1CN([C@@H](C)CO)C(=O)c2cc(NS(=O)(=O)c3cccs3)ccc2O[C@H]1CN(C)C(=O)Nc1ccc(C(F)(F)F)cc1	1.8	0.1

Molecule	BJeLR viability	A1 inhib
CC(C)S(=O)(=O)c1csc(NC(=O)Nc2cc(C(F)(F)F)cc(C(F)(F)F)c2)c1Cl	28	-1.3
O=c1c2cc3ccccc3oc-2nn1-c1ccc(Cl)cc1	-2.1	.
FC(F)(F)c1nc2ccccc2nc1-c1cccc(Cl)c1	-1.9	-0.2
COc1ccccc1C1CCN(C(=O)c2ccco2)CC1	8.2	-0.1
C[C@H](CO)N1C[C@H](C)[C@H](CN(C)C(=O)Nc2ccc(C(F)(F)F)cc2)Oc2c(NC(=O)c3cnccn3)cccc2C1=O	-1.5	.
CCn1c(C)[n+](CC)c2ccccc21	0.5	0.1
CCc1ccc(NC(=S)N(CCCN2CCCCC2)Cc2cccs2)cc1	0.4	.
CN(C)C=NC(=O)c1ccc(-c2cccs2)s1	-3.0	-1.5
C[C@H](CO)N1C[C@H](C)[C@H](CN(C)Cc2ccccc2)Oc2c(NC(=O)Nc3cccc4ccccc34)cccc2C1=O	3.6	.
CNC[C@@H]1Oc2c(NC(=O)C3CC3)cccc2C(=O)N([C@@H](C)CO)C[C@@H]1C	0.4	.
C[C@H]1CN([C@@H](C)CO)C(=O)c2cc(NC(=O)CCCN(C)C)ccc2O[C@H]1CN(C)Cc1ccc(Oc2ccccc2)cc1	-0.4	0.5
C[C@@H]1CN([C@@H](C)CO)C(=O)c2cccc(NC(=O)Nc3ccccc3)c2O[C@H]1CN(C)Cc1ccc(C(=O)O)cc1	1.2	.

Structures above containing a CF3 group, in the order listed:
Molecule	BJeLR viability	A1 inhib
C[C@@H]1CN([C@@H](C)CO)C(=O)c2cccc(NC(=O)Nc3ccc(C(F)(F)F)cc3)c2O[C@@H]1CN(C)S(=O)(=O)c1ccc(F)cc1	-0.8	.
C[C@@H]1CN([C@H](C)CO)C(=O)c2cc(NC(=O)Nc3ccc(C(F)(F)F)cc3)ccc2O[C@H]1CN(C)S(=O)(=O)c1cccs1	0.5	0.8
C[C@H]1CN([C@@H](C)CO)C(=O)c2cc(NS(=O)(=O)c3cccs3)ccc2O[C@H]1CN(C)C(=O)Nc1ccc(C(F)(F)F)cc1	1.8	0.1
CC(C)S(=O)(=O)c1csc(NC(=O)Nc2cc(C(F)(F)F)cc(C(F)(F)F)c2)c1Cl	28	-1.3
FC(F)(F)c1nc2ccccc2nc1-c1cccc(Cl)c1	-1.9	-0.2
C[C@H](CO)N1C[C@H](C)[C@H](CN(C)C(=O)Nc2ccc(C(F)(F)F)cc2)Oc2c(NC(=O)c3cnccn3)cccc2C1=O	-1.5	.

(cont.)
Molecule	BJeLR viability	A1 inhib
O=C(CNc1ccc(Cc2ccncc2)cc1)c1cccc2ccccc12	0.5	0.9
NC(=O)c1c(NC(=S)NC(=O)c2ccccc2Cl)sc2c1CCCC2	1.6	-0.8
C[C@H]1CN([C@@H](C)CO)C(=O)c2cc(NS(=O)(=O)c3cccs3)ccc2O[C@@H]1CN(C)S(=O)(=O)c1ccccc1	4.1	-0.2
C[C@@H]1CN([C@H](C)CO)C(=O)c2cc(NC(=O)CCC(F)(F)F)ccc2O[C@@H]1CN(C)C(=O)Nc1ccccc1	-3.0	-1.4
C[C@@H]1CN([C@H](C)CO)C(=O)c2cc(NC(=O)Cc3cn(C)c4ccccc34)ccc2O[C@H]1CN(C)C(=O)NC1CCCCC1	1.7	0.2
Cc1ccc(S(=O)(=O)Nc2ccc3c(c2)C(=O)N([C@H](C)CO)C[C@@H](C)[C@H](CN(C)S(=O)(=O)c2cccs2)O3)cc1	-2.9	0.0
O=C1CC(SC(=Nc2ccccc2)Nc2ccccc2)C(=O)N1CCc1ccccc1 (stereo unspecified)	-3.4	0.1
COc1ccc(/C=C2/SC(=S)N(C)C2=O)cc1	-3.3	-3.9
Cc1ccc(S(=O)(=O)N(C)C[C@H]2Oc3ccc(NS(=O)(=O)c4cccs4)cc3C(=O)N([C@H](C)CO)C[C@@H]2C)cc1	0.1	-0.5
C[C@H](CO)N1C[C@H](C)[C@H](CN(C)Cc2ccc(C(=O)O)cc2)Oc2c(NC(=O)C3CCCCC3)cccc2C1=O	0.5	.
COc1ccc(CCNC(=O)c2ccc(Sc3ccc(C)cc3)c(NC(C)=O)c2)cc1OC	-2.4	0.0
CCCc1c(C(=O)NC2CCN(C(=O)OCC)CC2)cnn1-c1ccccc1	-0.8	1.4

Molecule	BJeLR viability	A1 inhib
Cn1c(=O)cc(SCC(=O)NCc2cccnc2)c2ccccc21	6.1	.
C=C1CCC(O)/C(C)=C\CC(C(C)C)C(OC2OC(COC(C)=O)C(O)C(O)C2O)C1 (stereo unspecified)	4.0	-0.9
Cc1noc(C)c1S(=O)(=O)Nc1cccc2c1O[C@@H](CN(C)S(=O)(=O)c1cn(C)cn1)[C@@H](C)CN([C@H](C)CO)C2=O	-3.1	.
CCOC(=O)c1cnc2c(Cl)c(Cl)ccc2c1N(C)Cc1ccccc1	-11	0.0
COc1ccc2c(c1)-c1c(ssc1=S)C(C)(C)N2C(C)=O	13	-0.5
CN1c2ccsc2-c2nc(SCc3ccc(Cl)cc3)ncc2S1(=O)=O	1.5	0.6
Cc1noc(C)c1NC(=O)Nc1ccc2c(c1)C(=O)N([C@@H](C)CO)C[C@H](C)[C@@H](CN(C)Cc1ccc(-c3ccccc3)cc1)O2	2.5	0.1
COc1ccc(NC(=O)N(C)C[C@H]2Oc3ccc(NC(=O)CCCCCC(=O)Nc4ccccc4N)cc3C(=O)N([C@H](C)CO)C[C@H]2C)cc1	-6.0	.
Cc1ccc(S(=O)(=O)NC(=O)N(C)CCc2ccccn2)cc1	1.4	0.8
CC1N=C(SCC#N)N2C(C)N=C(SCC#N)N12 (stereo unspecified)	-6.7	1.0
Cc1ccc2oc(-c3ccccc3)c(CN3CCOCC3)c(=O)c2c1	0.6	-0.3
NNC(=O)CNC(=O)C1COc2ccccc2O1 (stereo unspecified)	-6.8	0.5

Molecule	BJeLR viability	A1 inhib
O=C(CCCn1c(=O)c2cccn2c2ccccc21)N1CCCCC1	-2.2	0.4
Cc1c(C(=O)OC2CCCC2)[nH]c2c1C(=O)CCC2	-0.4	.
CNC(=O)C1CCN(S(=O)(=O)c2ccc3c(c2)nc(C)n3C2CCCC2)CC1	2.6	1.2
C[C@@H]1CN([C@H](C)CO)C(=O)c2cccc(NC(=O)C3CCCCC3)c2O[C@@H]1CN(C)Cc1ccc(Oc2ccccc2)cc1	-6.9	.
CCOC(=O)c1cc(S(=O)(=O)NCC2CCCO2)cn1C (stereo unspecified)	0.8	-0.3
Cc1ccc(-n2c(-c3ccccc3)csc2=NC(=O)c2ccccc2)cc1	0.4	-0.2
O=c1ccc2cc3c(-c4ccc(F)cc4)coc3cc2o1	7.1	0.3
COc1ccc(NC(=O)Nc2ccc3c(c2)C(=O)N([C@H](C)CO)C[C@@H](C)[C@@H](CN(C)C(=O)Nc2ccc4c(c2)OCO4)O3)cc1	-5.1	1.0
CC(C)NC(=O)N(C)C[C@@H]1Oc2c(NS(=O)(=O)c3cn(C)cn3)cccc2C(=O)N([C@H](C)CO)C[C@@H]1C	-2.7	.
COc1cc(-c2noc(-c3c(-c4ccccc4Cl)noc3C)n2)cc(OC)c1OC	-6.3	-0.3
COc1ccc(-c2nc(COc3ccccc3Cl)nc(SC)c2C#N)cc1	2.4	-0.6
COC(=O)C1=CN(Cc2cccs2)C=C(C(=O)OC)C1c1cccc(OC)c1	-4.8	0.8

Molecule	BJeLR viability	A1 inhib
O=C(NN1S(=O)(=O)c2ccccc2S1(=O)=O)c1ccc(Br)cc1	1.1	-0.2
C[C@@H]1CN([C@H](C)CO)C(=O)c2cccc(NS(=O)(=O)c3ccc(F)cc3)c2O[C@H]1CN(C)S(=O)(=O)c1cccs1	-0.2	.
O=C(OCC1OC(Oc2ccc(O)cc2COC(=O)C2(O)C(O)CCC(=O)C2O)C(O)C(O)C1O)c1ccccc1 (stereo unspecified)	-8.1	0.0
C[C@H]1CN([C@@H](C)CO)C(=O)c2cc(NC(=O)C3CC3)ccc2O[C@H]1CN(C)S(C)(=O)=O	-1.2	0.6
COc1ccc(S(=O)(=O)N(C)C[C@@H]2Oc3ccc(NC(=O)Nc4ccc(C(F)(F)F)cc4)cc3C(=O)N([C@@H](C)CO)C[C@H]2C)cc1	-0.5	0.0
CCc1ccc(CNC(=O)C2CCN(c3nc4ccccc4o3)CC2)cc1	1.0	0.8
COc1cc(O)c2c(c1)O[C@@H](c1ccccc1)CC2=O	-2.9	0.6
O=C(O)c1ccccc1Sc1ccccc1S(=O)(=O)NC1CCCCC1	-2.3	-0.2

Compound activity from PubChem.
